Rango dissoc inh: qHTS Assay for Inhibitors of RanGTP induced Rango (Ran-regulated importin-beta cargo) - Importin beta complex dissociation; 340,000 compounds, 0.071% hits; AID 540253, 2011; Potency, µM (top dose mostly 46.1 µM), for the others: at the top dose activity change, negative = inhibition; Biochemical FRET Rango-importin beta, RanGTP-induced dissociation; active means falling FRET ratio curve, often poorly fitted, with flat reads before Ran was added; inconclusive means other falling curves, or compound fluorescence or quenching; inactive means flat or rising ratio curve;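 note: potency is the fitted concentration of half-maximal effect; % of control where 0% means no effect; nearly all actives have a fitted effect of over 45% in size; -100% = wells without RanGTP and RCC1; the record marks most hits as doubtful in a second field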
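Compounds sat 5 min at room temperature with 0.1 uM Rango biosensor plus 0.25 uM importin beta, then FRET pre-read. RanGTP-RCC1 (0.6 uM Ran, 2mM GTP, 0.2 uM RCC1) added for 45 min, and the CFP/YFP post-read measured blocked complex dissociation.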
miR-21 FLuc: qHTS Assay for Modulators of miRNAs and/orActivators of miR-21 | 340,000 tested, under 10 active | Potency, µM (doses to about 38.3 µM), for inactives: top-dose reporter change, positive = more light | HeLa miR-21 FLuc reporter, luciferase, 48 h; active = well fitted rising curve with a large enough effect; inconclusive = small, poorly fitted or top-dose-only effect; inactive = no such curve, though single readings can be large or run the other way;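 note: % of control where 0% means no effect; miR-21 action dims this reporter so a rising signal means less miR-21 action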
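HeLa cells endogenously expressing miR-21, stably carrying CMV-driven firefly luciferase with a downstream miR-21 binding site, 2000 cells/well. Titrations up to approximately 40 uM, 48 hours; luciferase luminescence read.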
Rango complex inh: qHTS Assay for Inhibitors of Rango (Ran-regulated importin-beta cargo) - Importin beta complex formation; Importin subunit beta-1 (Homo sapiens), Q14974; Rango CFP/YFP FRET sensor + importin beta, 45 min; AID 540263, 2011; Potency, µM (doses to about 92.2 µM), for inactives: at the highest dose inhibition of complex formation; 340,000 compounds, 0.031% hits; active = rising FRET ratio curve, often small or poorly fitted; inconclusive = mostly compound fluorescence or quenching in the first reads; inactive = flat curves in all reads;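 note: potency is the fitted concentration of half-maximal effect; 0% = DMSO wells and 100% = buffer wells lacking importin beta; nearly all actives have a fitted effect of over 15% in size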
Target sequence (Q14974 whole entry, looked up): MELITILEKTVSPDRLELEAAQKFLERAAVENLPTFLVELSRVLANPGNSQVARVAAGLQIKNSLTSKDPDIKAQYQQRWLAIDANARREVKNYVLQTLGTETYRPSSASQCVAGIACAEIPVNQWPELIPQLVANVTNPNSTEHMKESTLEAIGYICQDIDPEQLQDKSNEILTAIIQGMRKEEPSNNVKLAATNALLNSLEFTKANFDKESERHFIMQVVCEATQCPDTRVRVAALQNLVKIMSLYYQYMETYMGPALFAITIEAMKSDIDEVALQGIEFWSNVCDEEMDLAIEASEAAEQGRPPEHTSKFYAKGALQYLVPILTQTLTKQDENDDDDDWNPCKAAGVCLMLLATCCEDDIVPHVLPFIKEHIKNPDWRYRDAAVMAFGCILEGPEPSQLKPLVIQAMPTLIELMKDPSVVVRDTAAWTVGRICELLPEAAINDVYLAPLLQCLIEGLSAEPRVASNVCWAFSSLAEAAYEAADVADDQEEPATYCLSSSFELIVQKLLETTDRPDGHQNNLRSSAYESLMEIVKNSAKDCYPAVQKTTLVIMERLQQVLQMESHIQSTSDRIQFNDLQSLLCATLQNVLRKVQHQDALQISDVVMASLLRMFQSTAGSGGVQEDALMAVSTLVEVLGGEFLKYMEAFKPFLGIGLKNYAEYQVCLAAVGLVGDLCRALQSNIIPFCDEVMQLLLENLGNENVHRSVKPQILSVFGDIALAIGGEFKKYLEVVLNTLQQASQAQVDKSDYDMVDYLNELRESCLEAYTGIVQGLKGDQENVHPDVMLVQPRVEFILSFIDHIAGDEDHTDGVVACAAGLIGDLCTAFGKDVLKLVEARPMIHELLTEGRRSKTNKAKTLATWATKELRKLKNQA
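FRET biosensor (snurportin 1 IBB flanked by EYFP and cerulean), 50 nM, with compound 5 min, then 0.125 microM importin beta in PBS, 1 mM DTT, 0.02% Tween-20, 0.1% BSA. CFP/YFP ratio read after 45 min at room temperature; pre-read flags interference.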
GLA inh pH 4.5: qHTS Assay for Inhibitors of Human alpha-Galactosidase at pH 4.5; Alpha-galactosidase A (Homo sapiens), P06280; purified enzyme, 4-MU-alpha-Gal fluorescence, pH 4.5; activity change, negative = inhibition, % at 105 µM; 230,000 tested, under 10 active; inconclusive = small, poorly fitted or top-dose-only inhibition, or a rising curve; inactive = flat fitted curve, though single readings scatter; no compound was filed as active;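 note: 0% = full activity with enzyme and -100% = basal without enzyme; dose as in the result columns while the protocol names 77 µM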
Active calls of the source: *; ? = inconclusive; · = no result given.

SMILES	Rango dissoc inh	miR-21 FLuc	Rango complex inh	GLA inh pH 4.5
CCOc1cc(N2CCOCC2)c(OCC)cc1NC(=O)c1cc(-c2ccco2)nc2ccccc12	-1%	12%	-3.1%	-7
CSc1ccc(C(=O)NC2CCSc3ccccc32)cc1 (centres undefined)	-4%	-19%	-0.3%	·
COc1ccc(NC2=NCC(=O)N2c2ccccc2)c(OC)c1	14%	-2%	2.8%	1
CC(C)n1c(/N=C/c2c[nH]c3ccccc23)nc2ccccc21	-16%	3%	0.1%	-9
CCCCOP(=O)(c1ccc(N(C)C)cc1)C(O)c1c(Cl)cccc1Cl (centres undefined)	9%	3%	-0.3%	·
O=C(Cn1c2[n+](c3ccc(C(F)(F)F)cc31)CCCCC2)Nc1ccccc1	-22%	-3%	0.1%	8
O=C(c1ccco1)N1N=C(c2cccs2)CC1c1cc([N+](=O)[O-])ccc1O (centres undefined)	11%	-20%	0.3%	·
Cc1ccc(NC(=O)CSc2nncs2)cc1Cl	-9%	·	-0.1%	·
O=C(COc1ccc2ccc(=O)oc2c1)N1CCc2ccccc21	0%	-16%	0.2%	5
CC(=O)c1ccc(S(=O)(=O)Nc2cccc(S(=O)(=O)NC3=NCCC3)c2)cc1	15%	-9%	-0.5%	2
Cc1cc(NC(=O)CSc2nnc(-c3ccc([N+](=O)[O-])cc3)o2)no1	-1%	-3%	8.1%	·
CC(C)CN(C(=O)COC(=O)c1cccc2ccccc12)c1c(N)n(Cc2ccccc2)c(=O)[nH]c1=O	-1%	·	-1.2%	·
CCN(CC(=O)Nc1c(F)cccc1F)C(=O)CCNS(=O)(=O)c1ccc(C)c(C)c1	19%	·	-7.0%	·
CCc1ccccc1N(CC(=O)NCc1ccc(OC)cc1)C(=O)CCC(=O)Nc1ccccn1	11%	6%	-5.0%	·
COc1ccccc1CN=Cc1[nH]c2ccc(Br)c(Cl)c2c1O	-24%	-2%	?	5
O=C(Nc1ccccc1)OCCN1CCN(Cc2ccccc2)CCC1=O	-16%	-7%	11%	7
Cc1cccc(OCc2nnc(SCC(=O)N(C)C3CCCCC3)o2)c1	0%	·	-3.1%	·
COC1=CCC2([N+](=O)[O-])CN(CCO)CC1([N+](=O)[O-])C2 (centres undefined)	-10%	-1%	-3.3%	-10
Cc1cc(NC(=O)c2cc(C3CC3)on2)no1	7%	-40%	2.6%	-9
O=C(C[C@@H]1C/C=C\C[C@@H](Cc2ccc(F)cc2)C(=O)OC[C@H]2CCCN2C1=O)NCCO	-4%	·	-0.8%	·
CC(=O)O[C@]1(C(C)=O)CC[C@H]2[C@@H]3C=C(C)C4=CC(=O)CC[C@@H]4[C@H]3CC[C@@]21C	-5%	·	0.2%	·
O=C(O)/C=C/C(=O)N1CCN(c2ccccc2F)CC1	-11%	-11%	-1.1%	3
CCOC(=O)c1ccc(NC(=O)C2(c3ccc(OC)cc3)CCOCC2)cc1	-3%	0%	2.5%	-1
O=C(Nc1cccc(N=Cc2cc(Br)cc(Br)c2O)c1)c1ccco1	?	-16%	?	-6
O=C(CN1CCN(S(=O)(=O)c2ccccc2)CC1)N1CCc2ccccc21	-5%	·	-0.4%	·
CCC1(c2ccc(F)cc2)NC(=O)N(CC(=O)N2CCN(S(=O)(=O)c3ccc(C)cc3)CC2)C1=O (centres undefined)	21%	·	0.4%	·
CS(=O)(=O)N(CC(=O)NCc1ccccc1Cl)Cc1ccccc1	-12%	13%	0.8%	0
c1ccc2c(NC3CCCC3)nnc(NC3CCCC3)c2c1	-1%	9%	0.1%	-2
O=C(CCCc1nc2ccccc2s1)Nc1nccs1	-5%	-1%	-0.9%	1
CCOC(=O)c1nnn(CC(=O)N2N=C(c3ccc(Cl)cc3)CC2c2ccc(OC)cc2)c1C(=O)OCC (centres undefined)	17%	-5%	-2.7%	-19

Quoted at random: three compounds from above.
SMILES	Rango dissoc inh	miR-21 FLuc	Rango complex inh	GLA inh pH 4.5
CS(=O)(=O)N(CC(=O)NCc1ccccc1Cl)Cc1ccccc1	-12%	13%	0.8%	0
O=C(CN1CCN(S(=O)(=O)c2ccccc2)CC1)N1CCc2ccccc21	-5%	·	-0.4%	·
O=C(O)/C=C/C(=O)N1CCN(c2ccccc2F)CC1	-11%	-11%	-1.1%	3

The listing continues.
SMILES	Rango dissoc inh	miR-21 FLuc	Rango complex inh	GLA inh pH 4.5
O=C1C(Cl)=C(Nc2cccc(O)c2)C(=O)N1Cc1ccccc1	9%	23%	0.5%	-1
Cn1c(N)c(C(=O)COC(=O)c2ccc(F)cc2Cl)c(=O)n(C)c1=O	-6%	·	-0.1%	·
COc1ccc(N2CCOCC2)c(NC(=O)c2ccc3c(c2)OCO3)c1	-10%	-10%	0.0%	·
O=C(O)c1ccc(-c2nc(-c3ccccc3Cl)cs2)cc1	-23%	-60%	-3.2%	-3
COc1ccccc1-c1cnn2c(NCCc3ccccc3)cc(C)nc12	-16%	-58%	0.4%	·
O=C(COc1ccc(Cl)cc1)N1CCCCCCC1	-16%	-24%	1.9%	·
CC(=O)N1Cc2[nH]c3ccccc3c2CC1C(=O)O (centres undefined)	-9%	-1%	?	·
CCCc1cc(=O)oc2c(C)c(OCC(=O)N3CCC(C(N)=O)CC3)ccc12	-22%	-3%	-3.1%	·
O=C(NCCn1ccc2ccccc21)c1cccc([N+](=O)[O-])c1	5%	-10%	0.3%	2
O=C(COc1ccc(C(=O)Nc2ccc(Cl)cc2)cc1)NCc1ccccc1	-3%	-17%	-6.7%	-3

Of the compounds above, two have bromine:
SMILES	Rango dissoc inh	miR-21 FLuc	Rango complex inh	GLA inh pH 4.5
COc1ccccc1CN=Cc1[nH]c2ccc(Br)c(Cl)c2c1O	-24%	-2%	?	5
O=C(Nc1cccc(N=Cc2cc(Br)cc(Br)c2O)c1)c1ccco1	?	-16%	?	-6

Continuation:
SMILES	Rango dissoc inh	miR-21 FLuc	Rango complex inh	GLA inh pH 4.5
CCOC(=O)CCN	-27%	·	4.9%	·
CC(=O)CSc1nc2ccc(Nc3nc(N4CCOCC4)nc(N4CCOCC4)n3)cc2s1	16%	0%	3.2%	-5
CC(=O)NC(Cc1ccccc1C)C(=O)NC1CCN(C(=O)NCc2ccccc2)CC1 (centres undefined)	11%	-3%	0.5%	·
C=C[C@@H]1c2ccccc2N(S(=O)(=O)c2ccc(C)cc2)[C@H](c2ccc(OC(C)=O)cc2)C1(C#N)C#N	-6%	·	-1.8%	·
COc1cc(CNc2ccc3c(c2)CCC3)cc(OC)c1O	-17%	-26%	3.4%	3
COc1cccc(Nc2nc(-c3cccnc3)cs2)c1	8%	-27%	0.5%	·
CCNC(=O)NC(=O)c1csc([N+](=O)[O-])c1	6%	1%	-1.4%	4
COc1ccc(CCN2CCCC(CN(C)C(=O)c3ccoc3C)C2)cc1 (centres undefined)	-16%	-17%	3.8%	·
C=CCOc1ccc2ccccc2c1CNCCCN1CCOCC1	-2%	-1%	-5.7%	3
CC1(C(=O)N2CCC(CC3CC(c4cccc(Br)c4)=NO3)(C(=O)NCC3CCCCC3)CC2)CC1 (centres undefined)	-3%	8%	4.9%	·
O=c1oc2cc(OCc3ccc(F)cc3F)ccc2cc1-c1ccc2ccccc2n1	·	-18%	·	6
CC(=O)N1N=C(c2cccc(NS(=O)(=O)c3ccc(C)cc3)c2)CC1c1ccco1 (centres undefined)	1%	11%	0.5%	·
CCN(c1ccccc1)S(=O)(=O)c1cccc(C(=O)N2CCN(S(=O)(=O)c3ccccc3)CC2)c1	8%	8%	-1.1%	·
O=C(Cn1c(NCCO)nc2ccccc21)NCCc1ccccc1	-2%	-6%	5.3%	-1
Nc1ccccc1C(O)(Cc1ccccc1)c1ccccc1 (centres undefined)	0%	-3%	-0.4%	·
O=C(CCC(=O)Nc1ccc(Br)cc1)N/N=C/c1ccc(O)cc1	1%	-3%	-0.8%	·
COc1ccccc1NC(=S)N(Cc1ccc(C)cc1)Cc1ccccn1	0%	1%	-1.8%	-12
NC(=O)c1ccc(NC(=O)c2ccc(COc3ccc(F)cc3)o2)cc1	-12%	·	-1.2%	·
CC1CCN(C(=O)COC(=O)CNC(=O)c2ccccc2F)CC1	-3%	·	-1.9%	·
Cc1ccccc1C(=O)NC(=S)NC1CCS(=O)(=O)C1 (centres undefined)	11%	0%	1.5%	·
CCC(C)/C(C)=N/NC(=O)c1ccc(COc2ccc(Cl)c(C)c2)cc1 (centres undefined)	12%	-43%	-0.3%	-2
CC1CCCC(C)N1C(=O)COC(=O)c1n[nH]c(=O)c2ccccc12 (centres undefined)	-17%	·	3.1%	·
CCCc1nnc(NC(=O)CCC(=O)NC2CCCC2)s1	-8%	1%	5.3%	·
Cc1c(CCOC(=O)c2ccc([N+](=O)[O-])cc2)sc[n+]1CC(=O)c1ccccc1	-1%	-11%	?	-5
Cn1cnc([N+](=O)[O-])c1SCCO	15%	-1%	-0.1%	-4
Cc1cc(NC(=O)c2ccc(Cl)c(S(=O)(=O)N3CCOCC3)c2)no1	0%	-3%	0.0%	-2
CCOc1ncccc1C(=O)Nc1ccc(Cl)c(S(=O)(=O)N2CCCC2)c1	-8%	18%	6.4%	-3
O=C(c1ccc(S(=O)(=O)Nc2ccccc2Cl)cc1)N1CCCC1	-6%	·	-0.2%	·
CC(NC(=O)c1ccco1)C1COc2ccccc2O1 (centres undefined)	1%	-3%	0.2%	-2
Cn1c(=O)c2c(nc(CN3CCN(C(=O)c4ccco4)CC3)n2CC(=O)C(C)(C)C)n(C)c1=O	18%	-2%	1.5%	·
COc1ccc(/C=C/C(=O)NC(CCSC)C(=O)O)cc1 (centres undefined)	-2%	-3%	6.3%	2
CCn1cc(C2N3CC4(C)CN2CC(C)(C3)C4=O)c2ccccc21 (centres undefined)	1%	-1%	0.1%	7
Cc1ccccc1NC(=O)CCN1CCCC1	?	1%	-3.6%	-20
CSCCC(NC(C)=O)C(=O)Oc1ccc2c3c(c(=O)oc2c1)CCCC3 (centres undefined)	?	-20%	?	?
COc1ccc(NC(=O)CCNC(C)=O)cc1NS(=O)(=O)c1ccc(F)cc1	-2%	0%	-5.4%	-4
CSCSC1=C(C#N)C(c2ccccc2Cl)C(C(C)=O)=C(C)N1 (centres undefined)	-18%	2%	?	1
Cc1ccc(S(=O)(=O)NCC(=O)OCC(=O)N(CCC#N)c2ccccc2)cc1	2%	·	-1.9%	·
Cc1cc(NC(=O)c2ccc(F)cc2)no1	-26%	-49%	?	·
COc1ccc(-c2cc(C(=O)Nc3cc(S(=O)(=O)N4CCOCC4)ccc3N3CCOCC3)c3ccccc3n2)cc1	-3%	8%	-2.4%	5
COP(=O)(OC)c1nc(-c2ccc(C)cc2)oc1N1CCCCC1	1%	-8%	-0.7%	·
CC(=O)Nc1cccc(OCC(=O)Nc2ccc(F)cc2)c1	-9%	-30%	0.6%	-13
COCCn1c(SCC(=O)Nc2ccc(S(N)(=O)=O)cc2)nc2ccccc21	-7%	5%	-1.4%	-5
O=C(CSc1nnc2c(n1)[nH]c1ccc(S(=O)(=O)N3CCOCC3)cc12)Nc1ccc(F)c(F)c1	-14%	3%	-2.6%	4
Cc1ccc(NC(=O)CCS(=O)(=O)c2cccc3nonc23)c(Br)c1	0%	0%	-0.5%	·
COCCNc1ncnc2c1cnn2Cc1ccccc1Cl	15%	18%	-3.5%	·
Cn1nc(-c2ccccc2)c(C(=O)Nc2ccc(Cl)cc2)c1Cl	-16%	-1%	2.3%	1
O=C(c1cc2c(s1)CCCC2)N1CCN(S(=O)(=O)c2ccccc2)CC1	18%	·	3.1%	·
CC(C(=O)O)c1cccc(Oc2ccccc2)c1 (centres undefined)	21%	·	1.5%	-1
CCN1CCN(c2sc(S(C)(=O)=O)nc2S(=O)(=O)c2ccc(C)cc2)CC1	22%	10%	-3.4%	·
CCCn1cnc2cc(NCc3ccccn3)ccc21	-21%	-37%	?	8
COC(=O)CCCCC1SCC(NC(=O)c2ccccc2)C1=O (centres undefined)	4%	-2%	0.9%	3

Some of the compounds tested; rates above refer to the full screens.
